StopGo RLuc – FMDV 2A StopGo reporter, Renilla signal | HEK cells with a luciferase reporter of 2A StopGo recoding | Potency, µM (top dose mostly 57.5 µM), without a hit: at the top dose signal change, negative = less light | 120,000 tested, 0.32% active | AID 1745857; active means well fitted falling curve with a large enough effect; inconclusive means small, poorly fitted or top-dose-only effect; inactive means no such curve, though single readings can be large or run the other way; also: nearly all actives have a fitted effect of over 55% in size; overnight with compound
StopGo FLuc – FMDV 2A StopGo reporter, firefly signal | HEK cells with a luciferase reporter of 2A StopGo recoding | Potency, µM (series often up to 57.5 µM), without a hit: at the top dose signal change, negative = less light | 120,000 tested, 0.23% active | AID 1745856; active = well fitted falling curve with a large enough effect; inconclusive = small, poorly fitted or top-dose-only effect; inactive = no such curve, though single readings can be large or run the other way; also: nearly all actives have a fitted effect of over 60% in size; overnight with compound
* marks the source's active call; other numbers are inactive results; ? = inconclusive; [ ] = dose if it differs, or a comment. % is scaled to controls: 0 for no effect and ±100 for the full control effect; potency is read from the fitted curve at half-maximal effect. Rows were taken by chance; 0.55% or so of the library scored in one or more.

nr	SMILES	StopGo RLuc	StopGo FLuc
1	CC(C)CCOc1ccc2c(-c3ccccc3)cc(=O)oc2c1	0%	6%
2	O=S(=O)(NCCc1csc2nc(-c3ccc(F)cc3)nn12)c1ccc(Oc2ccccc2)cc1	63%[activator]	-15%
3	CCc1ccccc1Nc1sc(C(=O)c2cccc(OC)c2)c(N)c1S(=O)(=O)c1ccccc1	35%[activator]	-2%
4	CC(Cc1ccccc1)NCCn1cnc2c1c(=O)n(C)c(=O)n2C (stereo not given)	-5%[114 µM]	13%[22.9 µM]
5	CCCCCCCSc1nc2c(c(=O)[nH]c(=O)n2C)n1CCC	-6%	-4%
6	CC(=O)c1cccc(NC(=O)C2CCN(S(=O)(=O)c3ccc4c(c3)oc(=O)n4C)CC2)c1	0%	-11%
7	CC(=O)Nc1ccc(NC(=O)CSc2cn(CC(=O)N(C(C)C)C(C)C)c3ccccc23)cc1	-5%	-20%
8	CCc1ccc(OCCN)cc1	12%	0%
9	CC1CCn2c(nc3cc(C(=O)NCCc4ccc(Cl)cc4)ccc32)C1 (stereo not given)	-20%	42%[activator]
10	CCOc1ccc(-n2c(=O)c3c(C)c(C)sc3n(Cc3ccccc3C)c2=O)cc1	-13%	-4%
11	CNC(=O)C(=O)NCC(c1ccc2c(c1)OCO2)N1CCOCC1 (stereo not given)	-6%	-3%
12	CS(=O)(=O)N1N=C(c2cccc(O)c2)CC1c1ccco1 (stereo not given)	8%	105%[activator]
13	CCOC(=O)c1cnc2ccc(OCC)cc2c1Nc1ccccc1OCC	-7%	-7%
14	O=C(CN1C(=O)COc2ccc(S(=O)(=O)NC3CCCC3)cc21)Nc1ccc(Cl)cc1	139%[activator]	83%[activator]
15	CSc1ccc(-c2nc(CSCC(=O)NCc3cccs3)c(C)o2)cc1	?	-26%
16	CCn1nnc2cc(C(=O)Nc3nc(-c4ccc5c(c4)CCC(=O)N5)cs3)ccc21	-7%	-6%
17	Cc1ccc(Oc2ccc(NC(=O)Cn3cnnc3C#N)cc2)cc1	?	?
18	CCOc1ccc(CNC(=O)c2ccc3c(c2)sc2nc(-c4ccc(OC)cc4)cn23)cc1	0%	-8%
19	N#Cc1nc(Cc2ccccc2)oc1NCc1ccccc1Cl	12%	0%
20	Cc1cc(C)c(-n2nnnc2SCC(=O)NCCc2ccccc2)c(C)c1	19%	7%
21	Cc1ccc(Cn2nnc3c2-c2cc(F)ccc2S(=O)(=O)N(C(C)(C)C)C3)cc1	236%[activator]	-3%
22	CC1CCC(NC(=O)c2ccc3c(c2)N(Cc2ccccc2)C(=O)c2ccccc2S3(=O)=O)CC1 (stereo not given)	41%[activator]	55%[activator]
23	CC1(C)C(=O)N(CC(=O)Nc2ccc(OC(F)(F)F)cc2)c2ccccc21	8%	-2%
24	Cc1nnsc1C(=O)Nc1ccc(S(=O)(=O)N2CCCCC2)cc1	-3%	-9%
25	Cn1c(=O)[nH]c(=O)c2c1nc(N1CCN(CC(N)=O)CC1)n2Cc1cccc(Cl)c1	11%	20%
26	CCn1ccc2c(OCC(=O)NCc3ccccc3)cccc2c1=O	14%	22%
27	CNC(=O)CC1Sc2ccccc2NC1=O (stereo not given)	-9%[1.06 µM]	25%
28	COC(=O)c1ccc(NC(=O)c2cc(S(=O)(=O)N3CCC(C)CC3)cn2C)cc1	20%	1%
29	Cc1cc(C(=O)CSc2ccc(Cl)cc2)c(C)[nH]1	27%	13%
30	CCOC(=O)c1cc(S(=O)(=O)N2CCN(c3cccc(OC)c3)CC2)[nH]n1	33%[activator]	5%
31	COC(=O)CCC(NC(=O)C12CC3CC(CC(C3)C1)C2)C(=O)OC (stereo not given)	19%	0%
32	Cc1cc2oc(C(=O)NC3CCS(=O)(=O)C3)cc(=O)c2cc1C (stereo not given)	-9%	-2%
33	Cc1cc(Nc2cccc(C(F)(F)F)c2)nc2ccc(NC(=O)c3ccc(=O)[nH]c3)cc12	0%	21%
34	COc1ccc(CCNC(=O)C2(c3cccs3)CCOCC2)cc1	-7%	-1%
35	Cc1ccc(S(=O)(=O)c2nc(-c3ccccc3C)oc2N(C)C)cc1	4%	15%
36	Nc1nccnc1C(=O)NCCc1ccccc1C(F)(F)F	?	6%
37	Cc1ccc(Cn2cc(C(=O)c3ccc(F)cc3)c(=O)c3cc4c(cc32)OCO4)cc1	16%	-2%
38	CCOC(=O)C(C)Sc1ccc2nnc(CCNS(=O)(=O)c3ccc(C)cc3)n2n1 (stereo not given)	-6%	-23%
39	O=C(/C=C/c1ccc(Cl)cc1)Nc1ccccc1-c1ccccc1	13%	14%
40	CCC1Oc2ccc(C)cc2N(CC(=O)N2CCN(c3ccccc3OC)CC2)C1=O (stereo not given)	-10%	16%
41	CCOC(=O)c1noc2ncn(CC(=O)O)c(=O)c12	9%	92%[activator]
42	CCOc1cc(-c2ccc(OC)c(OC)c2)cc(=O)c2c(C)oc(C)c12	-8%	-8%
43	COC(=O)CN1C(=O)C(C)(C)c2cc(S(=O)(=O)Nc3ccc(Br)cc3F)ccc21	10%	0%
44	Cc1ccc(C(=O)O)cc1-c1ccc(C=O)o1	-3%	153%[activator]
45	CCOc1nc2ccccc2nc1N1CCC(C(=O)NC2CCCC2)CC1	-4%	-1%
46	Cc1ccc(C)c(N2CCN(S(=O)(=O)c3csc(C(N)=O)c3)CC2)c1	?	?
47	COc1cc2ccccc2cc1C(=O)Nc1ccc2oc(-c3cc(Br)ccc3Cl)nc2c1	-10%	-10%
48	CCOC(=O)c1c(NC(=O)CSc2cn(CCNC(=O)c3cccc(C(F)(F)F)c3)c3ccccc23)sc2c1CCC2	5%	-4%
49	CCCc1cc(=O)[nH]c2nnc(SCC)n12	8%	-14%
50	Cc1cccc(CNC(=O)Nc2ccc(N3CCCCC3)nc2)n1	17%	38%[activator]

Entries of single compounds as entered above. Order of screens: StopGo RLuc | StopGo FLuc
Cc1cc(Nc2cccc(C(F)(F)F)c2)nc2ccc(NC(=O)c3ccc(=O)[nH]c3)cc12 as listed: 0% | 21%
Cc1ccc(S(=O)(=O)c2nc(-c3ccccc3C)oc2N(C)C)cc1 as listed: 4% | 15%
Cc1ccc(C(=O)O)cc1-c1ccc(C=O)o1 as listed: -3% | 153%[activator]

The list continues:
nr	SMILES	StopGo RLuc	StopGo FLuc
51	CC(=O)c1ccc(NC(=O)c2cccc3c2ccn3C)cc1	2%	147%[activator]
52	CCc1ccc(NC(=O)Cn2c(=O)n(CCCC(=O)NCc3ccccc3Cl)c(=O)c3ccccc32)cc1	-1%	-15%
53	Oc1ccc(-n2nnnc2SCc2cc(Cl)c3c(c2)OCCO3)cc1	-23%	?
54	CC(=O)c1cccc(NC(=O)CN2C(=O)CN(C)C(=O)c3ccccc32)c1	-7%	-7%
55	CCOc1ccc(C(C)=O)cc1COC(=O)c1ccc(C(N)=O)cc1	7%	-2%
56	Cc1ccc2oc(=O)cc(CN3CCN(CCc4ccncc4)CC3)c2c1	-15%	-18%
57	COC(=O)CN1C(=O)CSc2ccc(S(=O)(=O)Nc3ccc(C(C)=O)cc3)cc21	92%[activator]	6%
58	CNC(=S)NNC(=O)c1ccccn1	30%[activator]	0%
59	Cc1cccc(-c2cc(C(=O)NCCN3CCOCC3)c3ccccc3n2)c1	33%[activator]	35%[activator]
60	Cc1cc(C)cc(C(=O)NCC(c2ccc(N(C)C)cc2)N2CCCC2)c1 (stereo not given)	-3%	-14%
61	CC(NC(C)C1CC2CCC1C2)C(=O)N(C)Cc1cccc(F)c1 (stereo not given)	2%	9%
62	O=C(CCCc1nc2ccccc2s1)N1CCCC1c1ccc(F)cc1 (stereo not given)	13%	91%[activator]
63	Cc1c(-c2ccccc2)n(-c2ccc(Cl)cc2)c2nc3c(c(=O)n(C)c(=O)n3C)n12	-10%	-22%
64	COC1CCN(Cc2ccc(C)cc2)CC1	-2%	-18%
65	C=CC[n+]1c(C)ccc2ccc(C)cc21	22%	0%
66	Cc1cccc2c1ccn2CCC(=O)Nc1nnc(CC(C)C)s1	-13%	-1%
67	CC(C)(C)C(=O)OCOC(=O)C1N2C(=O)CC2S(=O)(=O)C1(C)C (stereo not given)	3%	-10%[11.5 µM]
68	C=CCOc1cccc(NC(=O)C(C)(C)C)c1	0%	25%
69	CCOC(=O)c1ccccc1NC(=O)N1CCCC(CN2CCc3ccccc3C2)C1 (stereo not given)	-8%	1%
70	Cc1ccc(Cl)cc1N1CCN(S(=O)(=O)c2ccc3c(c2)CCN3C(=O)C2CCC2)CC1	3%	-12%
71	CCOc1ccc(C2CC(=O)c3c([nH]c(C(=O)OCc4ccccc4)c3C)C2)cc1 (stereo not given)	-8%	-9%
72	Cc1cccc(NC(=S)NCCc2ccc(C(F)(F)F)cc2)c1	50%[activator]	5%
73	Cc1cccc(C)c1NC(=O)Cc1c[nH]c2ccccc12	11%	6%
74	CCOc1cc(-c2nc(-c3ccc(-c4ccc(OC)cc4)nc3OC)no2)cc(OCC)c1OCC	31%[activator]	-17%
75	CC(=O)NCCNC(=O)c1ccc2c(=O)n(CCc3ccccc3)c(=O)[nH]c2c1	7%	218%[activator]

Of the compounds above, eight contain an aryl methoxy group:
nr	SMILES	StopGo RLuc	StopGo FLuc
3	CCc1ccccc1Nc1sc(C(=O)c2cccc(OC)c2)c(N)c1S(=O)(=O)c1ccccc1	35%[activator]	-2%
18	CCOc1ccc(CNC(=O)c2ccc3c(c2)sc2nc(-c4ccc(OC)cc4)cn23)cc1	0%	-8%
30	CCOC(=O)c1cc(S(=O)(=O)N2CCN(c3cccc(OC)c3)CC2)[nH]n1	33%[activator]	5%
34	COc1ccc(CCNC(=O)C2(c3cccs3)CCOCC2)cc1	-7%	-1%
40	CCC1Oc2ccc(C)cc2N(CC(=O)N2CCN(c3ccccc3OC)CC2)C1=O (stereo not given)	-10%	16%
42	CCOc1cc(-c2ccc(OC)c(OC)c2)cc(=O)c2c(C)oc(C)c12	-8%	-8%
47	COc1cc2ccccc2cc1C(=O)Nc1ccc2oc(-c3cc(Br)ccc3Cl)nc2c1	-10%	-10%
74	CCOc1cc(-c2nc(-c3ccc(-c4ccc(OC)cc4)nc3OC)no2)cc(OCC)c1OCC	31%[activator]	-17%

Later entries
nr	SMILES	StopGo RLuc	StopGo FLuc
76	CC(Sc1ncnc2nc[nH]c12)C(=O)NCCc1ccc(Cl)cc1 (stereo not given)	0%	5%
77	COCCOCC(OC)OC	-9%	-18%
78	Cc1cccc2sc(N3CCN(C(=O)c4ccco4)CC3)nc12	-6%	53%[activator]
79	COc1cccc(NC(=O)CNC(=O)[C@@H]2Cc3ccccc3CN2C(=O)OC(C)(C)C)c1	27%	23%
80	Cc1ccccc1NC(=O)C1(N(C)C(=O)Cc2nc(N)n[nH]2)CCCCC1	-9%	-5%
81	Cc1c(C)c2ccc(OCC(=O)NCCc3ccc(S(N)(=O)=O)cc3)c(C)c2oc1=O	11%	8%
82	COCCNC(=O)/C(C#N)=C\c1ccc(C(F)(F)F)cc1	12%	10%
83	O=C(c1cc(F)cc(F)c1)N1CCC(CCc2ccc(O)cc2)CC1	7%	6%
84	O=[N+]([O-])c1cc(N=Cc2cccnc2)cc2ccc3ccccc3c12	-7%	4%
85	COCCn1c(C)cc(O)c(C(c2ccccc2)N2CCN(CCO)CC2)c1=O (stereo not given)	2%	-15%
86	Cc1nc2ccccc2nc1SCC(=O)NCc1ccccc1	0%	29%
87	CN(CCOc1ccc(Br)cc1)c1ccc(S(=O)(=O)N2CCOCC2)cn1	5%	9%
88	COc1ccc(C(=O)CCl)cc1Cl	-6%[1.06 µM]	18%
89	Cc1cccc(C(=O)Nc2ccc(N3CC=C(c4ccccc4C)CC3)c(C(=O)O)c2)c1	-11%	24%
90	Cn1c(=O)c2c(ncn2CC(=O)c2ccc(C(C)(C)C)cc2)n(C)c1=O	-13%	-6%
91	Cc1ccc(S(=O)(=O)N2CCc3cc(C(=O)Nc4c(F)cccc4F)ccc32)cc1	20%	-15%
92	Cc1ccc(CNC(=O)OC(C)(C)C)c(/C=C/S(=O)(=O)NCc2ccc(F)cc2)c1	363%[activator]	24%
93	CC(C)(C)c1ccc2c(c1)OCCOCCOCCOc1ccc(C(C)(C)C)cc1OCCOCCOCCO2	25µM*	?
94	COc1cc(OC)c(OC)cc1CNC(=O)c1cc(Br)ccc1F	34%[activator]	1%
95	COc1ccc(-c2cc(C(F)(F)F)nc(SCC(=O)NC(C)c3ccccc3)n2)cc1 (stereo not given)	-4%	0%
96	COc1ccc(N2CCN(C(=O)CSCc3ccc(C)cc3)CC2)cc1	10%	-2%
97	COc1cc(NC2c3ccccc3C(=O)N2c2ccccc2C)cc(OC)c1OC (stereo not given)	7%	-1%
98	Cc1ccc(OCC(=O)n2nc(C)c(S(=O)(=O)N3CCc4ccccc4C3)c2C)cc1	91%[activator]	12%
99	Cc1ccc2c(CSc3nc(N)cc(N)n3)cc(=O)oc2c1	38%[activator]	15%
100	O=C1C=Cc2ccccc2/C1=C/N(O)c1ccccc1	89%[activator]	-2%
101	O=C(Nc1ccc(Cl)cc1F)c1ccccc1OCC1CCCO1 (stereo not given)	6%	12%
102	O=C(NCc1cccnc1)c1ccccc1Nc1ccccc1	31%[activator]	24%
103	CCCCCCc1c(C)c2c(cc(C)c3c(C)coc32)oc1=O	-7%	-7%
104	CC1CCCCN1C(=O)CSc1nc2ccsc2c(=O)n1-c1cc(F)cc(F)c1 (stereo not given)	3%	11%
105	CC1=C(C(=O)NCc2ccc(Cl)cc2)C2(CCCCCC2)OC1=O	6%	-15%
106	Cc1nc2ccc(C(=O)OC(C)C(=O)NC3CCCC3)cc2nc1C (stereo not given)	7%	163%[activator]

Screens (PubChem)
